TRPV1 PAM: human TRPV1 potentiation. actives 0.02% (n = 320,000). TRPV1-expressing cells, Fluo-8 calcium influx, capsaicin EC20 potentiation; host cell line not named in the record; control for the full effect not named in the record. potentiation, % at 8.33 µM; active means potentiation above 80%; inconclusive means 30% to 80%; inactive means below 30%; further: 0% is about no effect
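Fluo-8 calcium influx in TRPV1-expressing cells, kinetic read (ex 480/em 520 nm). Compound added and read 3 min for agonist activity, followed by capsaicin at EC20 final and 2 min further read for enhancement.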
Sfp PPTase inh: blocks B. subtilis Sfp PPTase activity | Potency, µM, without a hit: max response, negative = inhibition, hits mostly inhibitors | Biochemical Sfp PPTase activity, qHTS | actives 3.5% (n = 310,000); active means well fitted inhibition curve with a large enough effect; inconclusive means small, poorly fitted or top-dose-only effect, or another doubt; inactive means no such curve, though single readings can be large or run the other way;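 further: the enzyme is Sfp with the accession as filed and its product quenches rhodamine fluorescence; potency means the concentration at half of the fitted maximal effect; 0% = enzyme reaction without inhibitor and -100% = no enzyme wells; top concentration of the series not given in the record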
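Fluorescence-quenching assay: 15 nM Sfp-PPTase preincubated 15 min at room temperature with compound, then 5 uM rhodamine-CoA and 12.5 uM BHQ-2-labelled YbbR peptide added. Fluorescence (ex 525/em 598 nm) read at start and after 30 min; difference gives rate.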
TRPML1 ag: activates the human TRPML1 channel; Q9GZU1; TRPML1-expressing cells, Ca2+ dye fluorescence, FDSS; host cell line not named in the record; reference of the full effect not given here; activation, % (concentration not given with the values); actives 0.12% (n = 410,000); in the data active = activation above about 50%; inconclusive = about 30% to 50%; inactive = below about 30%; further: 0% is about no effect; the text of the record puts the active cut at 80%
Target sequence (Q9GZU1 whole entry, looked up): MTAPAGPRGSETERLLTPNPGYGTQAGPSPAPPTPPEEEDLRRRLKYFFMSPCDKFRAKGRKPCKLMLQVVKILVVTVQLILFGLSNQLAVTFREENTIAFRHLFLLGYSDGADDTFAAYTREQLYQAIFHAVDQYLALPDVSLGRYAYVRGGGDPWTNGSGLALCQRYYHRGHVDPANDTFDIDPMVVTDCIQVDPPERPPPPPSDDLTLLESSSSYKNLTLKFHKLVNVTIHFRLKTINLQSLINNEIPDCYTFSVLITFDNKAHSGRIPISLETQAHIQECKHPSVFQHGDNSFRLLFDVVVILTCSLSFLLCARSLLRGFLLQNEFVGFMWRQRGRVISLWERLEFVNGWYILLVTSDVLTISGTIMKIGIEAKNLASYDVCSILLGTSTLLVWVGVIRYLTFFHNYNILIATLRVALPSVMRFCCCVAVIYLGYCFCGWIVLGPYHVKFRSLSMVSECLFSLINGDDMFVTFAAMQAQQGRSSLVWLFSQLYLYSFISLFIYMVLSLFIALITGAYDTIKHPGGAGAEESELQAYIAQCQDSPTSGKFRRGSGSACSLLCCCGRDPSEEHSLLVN
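Tetracycline-induced TRPML1-DL cells are seeded and incubated overnight before loading with a no-wash Ca2+ dye and quencher. Agonist activity is taken from the 110 s fluorescence read following compound pin-transfer on an FDSS, before EC80 54-4 challenge.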
Menin MLL FP FL: menin-MLL binding inhibition, fluorescein peptide; Fluorescence polarization, fluorescein-MLL peptide displacement from menin; FP activity change, % at 61.4 µM; 290,000 tested, under 10 active; AID 1766; inconclusive = falling polarisation curve, or a change in total fluorescence; inactive = total fluorescence flat and polarisation flat or rising; no compound was filed as active; the % refers to the polarisation; negative = inhibition;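 further: % of control where 0% means no effect; inhibitors lower the polarisation; unlabelled MLL peptide was the positive control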
TRPML1 blocker: human mucolipin-1 channel inhibition | Q9GZU1 | actives 0.02% (n = 390,000) | activity change, negative = inhibition, % (test concentration not listed) | TRPML1-inducible cells, Ca2+ dye fluorescence, FDSS; hits give low values; inhibition of EC80 agonist-evoked calcium signal | AID 624415; in the data active means activity change below about -50%; inconclusive means about -30% to -50%; inactive means above about -30%;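 further: stimulus is agonist 54-4 at its EC80 concentration; on the % scale 0 is the no-effect control and ±100 the full control effect; compound concentration not given in the record; the text of the record puts the active cut at -80%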
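TRPML1-DL cells, Tet-induced overnight (~16 h, 37 °C) at 1,500 cells/well, were loaded with Ca8 no-wash dye plus quencher for 45-90 min at room temperature. Compounds were pinned during FDSS kinetic reading; agonist 54-4 at EC80 (4 uM final) then added.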
PINK1 expr mod: changes PINK1 expression; PINK1 immunofluorescence, high-content cytometry, 24 h; Potency, µM (doses to about 76.6 µM), for inactives: top-dose activation (PINK1 increase), hits mostly activators; actives 0.2% (n = 410,000); AID 624263; active = well fitted activation curve with a large enough effect; inconclusive = small, poorly fitted or top-dose-only effect; inactive = flat fitted curve, though single readings scatter; cell line not stated here;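 further: potency means the concentration at half of the fitted maximal effect; % of control where 0% means no effect; nearly all actives have a fitted effect of over 65% in size; a mitochondrial uncoupler was the plate control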
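Cells are seeded, rested 12 hours, then given compound at five concentrations or DMSO for 24 hours. After fixation, blocking and antibody staining, PINK1 amount and mitochondrial localization are scored; CCCP serves as control.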
ClpP mod: qHTS Assay for Activators of ClpP; actives 1.9% (n = 340,000); purified B. subtilis ClpP, FRET peptide cleavage, 20 min; Potency, µM (titrated, usually from 57.5 µM), inactives show top-dose activity change, negative = active; ATP-dependent Clp protease proteolytic subunit (Bacillus subtilis (strain 168)), P80244; active = well fitted falling curve with a large enough effect; inconclusive = small, poorly fitted or top-dose-only effect; inactive = no such curve, though single readings can be large or run the other way; further: potency means the concentration at half of the fitted maximal effect; the source files actives as falling curves though it sought activators and does not explain the sign; nearly all actives have a fitted effect of over 65% in size; many hits overshoot -100%
Target sequence (P80244 whole entry, looked up): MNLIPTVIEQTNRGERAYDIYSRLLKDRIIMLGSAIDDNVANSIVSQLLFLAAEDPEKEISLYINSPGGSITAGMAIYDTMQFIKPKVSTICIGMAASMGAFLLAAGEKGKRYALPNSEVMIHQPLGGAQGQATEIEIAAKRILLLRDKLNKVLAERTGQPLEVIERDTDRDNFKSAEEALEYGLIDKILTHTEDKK
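Purified B. subtilis ClpP, 10 microg/mL final in Tris/HCl pH8 with KCl, BSA, glycerol and Tween-20, cleaved an Abz/nitrotyrosine-quenched decapeptide. Fluorescence (ex 320, em 430) was read at 0 and 20 min at room temperature. Delta was normalized to 5.8 microM ADEP and DMSO/no-enzyme controls.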
An asterisk follows results filed as active; ? = inconclusive; . = no result given; & = joins results of further samples; [ ] = another dose, or the depositor's remark.

SMILES | TRPV1 PAM | Sfp PPTase inh | TRPML1 ag | Menin MLL FP FL | TRPML1 blocker | PINK1 expr mod | ClpP mod
CCC1CCCCN1C(=O)Cn1c(=O)cc(C(F)(F)F)c2c(C)nn(C)c21 (centres undefined) | . | . | 1.9 | . | 6 | 1.3% | 4.3%
Cc1nc(N(C)Cc2ccccc2)c2c(C)c(C)sc2n1 | -9 | -18% | 0.4 | 0.0 | 6 | 9.0% | .
CCCCCNC(=O)c1ccccc1SC | 0 | 18% | 0.2 | -0.1 | -6 | -2.3%[38.3 µM] | -1.1%
CC(=O)Oc1ccc(N(C(C)=O)S(=O)(=O)c2ccccc2)c2ccccc12 | . | . | -0.9 | . | -10 | -0.1% | -1.7%
OCCCNc1ncnc2c1ncn2[C@H]1CN(Cc2ccc(-c3ccccc3)cc2)C[C@@H](CO)O1 | . | . | 0.6 | . | . | 1.6% | -0.8%
ON=Cc1cccn1-c1ccccc1 | 10 | 8% | 0.0 | -1.4 | -11 | -0.6%[38.3 µM] | -0.7%
COc1ccc(C(CNC(=O)c2cccc(S(=O)(=O)N3CCCC3)c2)N2CCCC2)cc1 (centres undefined) | 8 | . | -0.9 | . | 2 | -0.8% | 2.7%
N#Cc1ccccc1S(=O)(=O)N1CCN(C(=O)CCNS(=O)(=O)c2ccc(Cl)cc2)CC1 | . | . | 1.3 | . | 7 | 0.3% | 1.5%
Clc1ncc(Cn2cccn2)s1 | 2 | 22% | 0.2 | -2.6 | 3 | 4.1% | -2.0%
CC(=O)NC(Cc1ccc(F)cc1)C(=O)N1CCN(C(=O)NCc2ccccc2)CC1 (centres undefined) | -19 | 4% | 0.5 | 3.9 | -3 | -1.0%[38.3 µM] | -0.4%
COc1ccc(-c2cc(C)no2)cc1S(=O)(=O)N1CCOc2ccccc21 | -3 | 34%[activator] | 0.1&0.8 | 5.6 | 0&25 | 4.4%&3.7% | -0.9%&-1.9%
c1ccc(C2OCC3(CO2)COC(c2ccccc2)OC3)cc1 (centres undefined) | -14 | 12% | -0.2 | ? | -17 | 7.0% | -0.3%
OCC1(CCc2ccccc2)CCCN(CCCc2ccccc2)C1 (centres undefined) | -6 | 6% | -0.1 | 2.4 | 4 | 9.3% | .
Cc1cc(=O)[nH]c(Nc2ccccc2C)n1 | ? | -5% | -0.9 | -15 | 5 | -1.7% | 0.4%
COCCNC(=O)c1ccccc1NC(=O)c1cc(OC)cc(OC)c1 | -15 | 10% | 0.0 | 1.0 | -5 | 0.1% | .
CNC(=O)COC(=O)Cc1ccc(Cl)cc1 | -28 | 5% | -0.5 | -3.1 | 34 | 1.4% | .
COc1ccc(OC)c(NC(=O)Cn2c(=O)n(CC(=O)NCc3ccco3)c(=O)c3ccccc32)c1 | 8 | -16% | -0.2 | -0.3 | -9 | 5.5% | -2.4%
CCOC(=O)C1=C(c2ccccc2)NC(=O)NC1c1cc(OC)c(OC)c(OC)c1 (centres undefined) | -6 | . | 1.8 | . | 5 | 2.0% | -0.9%
Cc1nc(Cl)sc1C(=O)Nc1cccc2ccccc12 | -3 | 1% | 0.0 | 0.9 | 4 | 5.2% | -0.7%
CCOCCCN(C(=O)CNC(=O)c1ccco1)C(C(=O)NC1CCCC1)c1cccc(OC)c1 (centres undefined) | -3 | 11% | 0.2 | -2.4 | 0 | -2.7% | .
C=CC[C@H]1C=C[C@@H](C(C(=O)OC)C(=O)OC)CN1C(C)=O | . | . | -0.2 | . | -9 | 0.0% | 0.0%
CCCCC(=O)Nc1nnc(-c2ccc(OC)cc2)s1 | 7 | 7% | -0.4 | -0.1 | 5 | 11% | ?
COc1ccc(Cc2nc3ccc(S(=O)(=O)N4CCOCC4)cc3[nH]2)cc1 | -23 | 13% | 0.2 | -3.5 | 4 | 8.8%[38.3 µM] | -0.5%
c1ccc(Oc2ncnc3sccc23)cc1 | -3 | 17% | -0.5 | 3.2 | 12 | 3.0% | -1.7%
CC#Cc1cc2c(cc1O)CCC1C2CCC2(C)C(O)CCC12 (centres undefined) | . | . | 0.6 | . | 18 | 8.0% | 0.9%

(list continues)
SMILES | TRPV1 PAM | Sfp PPTase inh | TRPML1 ag | Menin MLL FP FL | TRPML1 blocker | PINK1 expr mod | ClpP mod
CCOc1cc(C(=O)NCC2CCCO2)cc(OCC)c1OCC (centres undefined) | 23 | 6% | 1.1 | -4.7 | -3 | 13%[38.3 µM] | -0.4%
CCN(CC)C(=O)c1c(NC(=O)c2ccccc2F)sc2c1CCC(C(C)(C)C)C2 (centres undefined) | . | . | -0.4 | . | -6 | 2.8% | -12%
CCCCNc1ccc(C(CC(N)=O)NC(=O)c2ccccc2)cc1[N+](=O)[O-] (centres undefined) | ? | -4% | -0.4 | -0.6 | -5 | 1.0% | -0.1%
O=C(C1CCCN(S(=O)(=O)c2cc(Cl)ccc2Cl)C1)N1CCCCCC1 (centres undefined) | -24 | 13% | 0.8 | . | 17 | 3.1% | 0.4%
Cc1ccc(C23OCCN2CCn2nc4ccccc4c23)cc1 (centres undefined) | -8 | . | 0.1 | . | -5 | -0.7% | -2.2%
CC(C)OCCCNc1ncc2c(n1)CC(c1ccc(N(C)C)cc1)CC2=O (centres undefined) | 0 | -3% | -0.3 | 2.9 | -10 | 0.4% | -3.5%
OC1(c2ccc(F)cc2)CCN(Cc2ccccc2)C1 (centres undefined) | -16 | 6% | 4.2 | 0.3 | 42 | ? | 1.2%
COc1ccc(C(=O)c2sc(NC(C)C)nc2N)cc1OC | 6 | 7% | 1.4 | 0.2 | 10 | 0.0% | 25µM*
Cc1ccc(OCCC(=O)OCC(=O)NCCc2ccc(Cl)cc2)cc1 | 11 | . | -0.2 | . | -8 | 0.6% | 66%
O=C(O)C(=O)/C(=C\c1ccsc1)c1ccc2ccccc2n1 | 3 | 3% | 5.5 | . | -7 | 2.3% | .
O=C(CCS(=O)(=O)c1ccccc1)N(CCCN1CCOCC1)c1nc2ccccc2s1 | -1 | . | 0.1 | . | -4 | -9.4% | 0.2%
Cc1ccc(NC(=O)CNCc2ccc(Cl)cc2Cl)cc1S(=O)(=O)N(C)C | -6 | 79µM* | 2.1 | 2.6 | 50 | 4.4% | .
COc1ccc(-c2nnc(-c3cc(OC)c(OC)c(OC)c3)o2)cc1OC | -15 | 30%[activator] | -1.6 | 0.1 | -16 | 2.5% | ?
Cc1cc(NC(=O)c2cc(-c3ccc(C)c(C)c3)nc3ccccc23)no1 | ? | -15% | 0.4 | 1.9 | -24 | ? | 13µM*
NCCN(Cc1ccc(Cl)c(Cl)c1)c1ccc(Br)cn1 | . | . | 3.6 | . | . | 3.1% | -6.7%
CNc1nc(N)c(C(=O)Nc2cc(C)on2)s1 | 1 | 50µM* | -0.3 | -0.4 | -14 | 0.8% | -0.4%
Cc1ccc2c(=O)n3c(nc2c1)C(CC(C)C)NC(=O)c1cccnc1-3 (centres undefined) | . | . | 0.0 | . | 4 | -0.3% | -1.4%
CCN(Cc1ccccc1)C(=O)COC(=O)c1cc(=O)[nH]c2ccccc12 | 29 | -18% | 0.8 | -1.9 | 21 | 0.5% | .
Cn1c(CC(=O)Nc2ccc(Cl)c(Cl)c2)nnc1SCC(=O)Nc1nccs1 | 4 | ? | 0.4 | 1.2 | 19 | -0.8%[38.3 µM] | -1.5%
N#CC1=C(N)Nc2ncnn2C1c1ccccc1 (centres undefined) | -2 | 13% | . | 0.9 | . | . | .
O=C(O)c1cccc(NC(=S)NC(=O)c2ccc3ccccc3c2)c1 | 2 | 8% | 0.8 | 0.7 | -2 | 3.5% | 31%
CCNc1nc(NCC)n2c(SCC(=O)Nc3ccccc3Cl)nnc2n1 | -1 | . | 0.6 | . | -3 | -1.6% | -8.8%
CCN(CC)C(=O)Nc1ccc(Br)cc1 | 0 | 8% | -0.6 | 0.2 | -25 | 3.5% | .
O=C(NCCCN1CCC(Cc2ccccc2)CC1)C1CC(=O)N(C2CCCCCC2)C1 (centres undefined) | -11 | 5% | 0.2 | -5.6 | -3 | 3.6% | -3.8%
Cn1c(N)nc2ccccc2c1=O | 8 | 14% | -0.1 | 4.4 | -12 | 1.3% | .

(further entries)
SMILES | TRPV1 PAM | Sfp PPTase inh | TRPML1 ag | Menin MLL FP FL | TRPML1 blocker | PINK1 expr mod | ClpP mod
C=C1CCN(C(CC(C)C)C(=O)NCc2ccc(Cl)cc2)S(=O)(=O)c2ccccc21 (centres undefined) | . | 9% | 1.4 | -2.3 | -12 | . | .
CCN(C(=O)c1cccnc1SC)C12CC3CC(CC(C3)C1)C2 | -22 | 11% | -0.2 | -1.5 | 6 | -0.2% | .
COc1cc(NC(=O)COC(=O)CNC(=O)c2ccc(Cl)cc2)c(C)cc1[N+](=O)[O-] | 6 | 11% | 0.8 | 6.9 | 9 | 1.8% | -10%
O=C(NCc1cc(F)ccc1F)C1CCC(=O)N(C2CCCCCC2)C1 (centres undefined) | -9 | 11% | -0.2 | . | 19 | -0.6% | .
CN(CC1CCCN(CCc2ccc(Cl)cc2)C1)C(=O)c1ccc2nc[nH]c2c1 (centres undefined) | -8 | 9% | 0.1 | . | -19 | -2.4% | -0.8%
O=C(Nc1ccc(Cl)cc1)N1CCC(c2ccccc2)C1 (centres undefined) | -7 | -14% | -0.4&2.1 | -6.6 | 7&-3 | 2.0%&-0.4% | -0.1%
O=C(COc1ccccc1Cl)Nc1ccc2[nH]c(=O)[nH]c2c1 | -7 | . | 0.0 | . | 6 | -1.2% | 16µM*
Clc1ccccc1CSc1cnnc2ccccc12 | . | . | -0.8 | . | 10 | 7.5% | .
CC(/C=N/NC(=O)Cc1cccs1)=C\c1ccco1 | 24 | ? | 0.0 | 1.6 | -9 | . | -0.4%

Compound activity: PubChem BioAssay, National Center for Advancing Translational Sciences (NCATS)
